PKD1 kinase inh = blocks activity of human protein kinase D1; AID 797; Q15139; inhibition, %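 (about 10 µM by stock and volumes)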; 200,000 tested, 0.056% active; PKD1 kinase fluorescence polarization assay;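 active = inhibition of 50% or more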;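 also: controls were vehicle for no effect and a reference inhibitor for full effect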
RGS16-Gao HTS = modulates binding between human RGS16 and Galphao. O15492+P09471. bead-based flow cytometry RGS16-Galphao binding, fluorescence; actives lie on both sides. binding response (% of control), % at 10 µM. 220,000 tested, 0.38% active. AID 1441;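 active = below 25% or above 175%, edge rows of some plates excepted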;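 also: Galphao activated by GDP with aluminum fluoride before binding; 100% = wells without compound and 0% = beads without RGS; some results beyond the cut were filed as inactive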
Target sequence (O15492 whole entry, looked up): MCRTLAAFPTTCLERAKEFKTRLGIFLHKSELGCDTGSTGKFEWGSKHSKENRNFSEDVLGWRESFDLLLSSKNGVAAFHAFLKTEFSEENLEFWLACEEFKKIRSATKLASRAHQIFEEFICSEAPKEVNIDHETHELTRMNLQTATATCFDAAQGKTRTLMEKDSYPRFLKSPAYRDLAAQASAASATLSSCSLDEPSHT
Target sequence (P09471 whole entry, looked up): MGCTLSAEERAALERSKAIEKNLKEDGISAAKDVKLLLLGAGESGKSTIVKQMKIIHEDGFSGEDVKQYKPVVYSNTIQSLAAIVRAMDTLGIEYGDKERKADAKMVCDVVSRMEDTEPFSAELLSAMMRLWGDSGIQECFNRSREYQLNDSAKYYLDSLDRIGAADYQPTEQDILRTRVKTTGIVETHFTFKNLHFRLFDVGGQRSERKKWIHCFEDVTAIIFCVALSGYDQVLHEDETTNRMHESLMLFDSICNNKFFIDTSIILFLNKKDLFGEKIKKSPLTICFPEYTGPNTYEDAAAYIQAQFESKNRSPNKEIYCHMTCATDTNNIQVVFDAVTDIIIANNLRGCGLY
HSV augment = HSV replication enhancement; HSV replication augmentation in cells, fold increase; maximum fold increase; 220,000 tested, 0.005% active; AID 1956;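 active = peak rise of 1.5-fold or more in the series; tested in PC3 cells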;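 also: first round at 10 µM; read as green reporter fluorescence; hits show the peak of a series up to 25 µM; 1 = signal of infected wells without compound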
INS promoter inh = TRM-6 insulin promoter activity inhibition; TRM-6 cells (human fetal islet line), insulin promoter-eGFP reporter, imaging; reporter expression induced with tamoxifen; inhibition, % at 2 µM; 130,000 tested, 0.9% active;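 active = inhibition above the mean plus 3 SD, with well images judged a real hit on visual review, cut at about 60% in these data, passing the limit was not always enough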
GALR2 agonist = agonists of human galanin receptor 2 (GALR2) | O43603 | GALR2-expressing cells, agonist activation read-out | activation, %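 (tested at 5 µM)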 | 140,000 tested, 0.48% active;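 active = above mean plus 3 SD of all compounds, about 5% in these data, not always enough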;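 also: 0% = vehicle buffer wells and 100% = reference agonist at full effect; tested in CHO reporter cells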
Target sequence (O43603 whole entry, looked up): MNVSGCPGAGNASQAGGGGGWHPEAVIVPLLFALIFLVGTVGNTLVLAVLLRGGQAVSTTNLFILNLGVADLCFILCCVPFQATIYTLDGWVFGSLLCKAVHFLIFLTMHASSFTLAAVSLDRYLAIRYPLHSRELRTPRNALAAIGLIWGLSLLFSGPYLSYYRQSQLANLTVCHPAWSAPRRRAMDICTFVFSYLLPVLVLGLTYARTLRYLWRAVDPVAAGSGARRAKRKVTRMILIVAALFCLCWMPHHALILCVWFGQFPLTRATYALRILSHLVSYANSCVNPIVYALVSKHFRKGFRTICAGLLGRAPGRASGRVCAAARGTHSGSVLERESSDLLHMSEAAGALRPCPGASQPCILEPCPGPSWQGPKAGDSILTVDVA
INS promoter inh cell count = further read-out of INS promoter inh, marked with its call; normalized cell count, %; measured here: cell count, toxicity; reference of the scale not given here;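 cells exposed to compound for 48 h; stained nuclei by imaging scaled within each plate; lower means fewer cells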
HSV augment primary fold = second read-out of HSV augment, no call of its own (marks repeat the call); fold increase; compound at 10 µM; measured here: primary screen fold increase 10 uM; tested in PC3 cells;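 GFP signal in the first replicate; 1 = infected wells without compound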
* hit, by the source's call; i = inactive; . = not tested or not shown.

No. | smiles | GALR2 agonist | INS promoter inh | HSV augment primary fold | INS promoter inh cell count
1 | O=C(O)c1ccccc1C(=O)Nc1ccc(S(=O)(=O)NC2CCCCC2)cc1 | 14.5* | 33.3 | 0.87 | 168.5
2 | O=C(COC(=O)C12CC3CC(CC(C3)C1)C2)N1CCN(S(=O)(=O)c2ccccc2)CC1 | -0.7 | 27.3 | 1.04 | 60.1
3 | CSc1ncc(CO)n1Cc1ccccc1 | . | . | 1.02 | .
4 | CC1CC(c2ccccc2)n2nc(NC(=O)c3ccco3)nc2N1 (stereo not given) | -2.6 | -13.9 | 0.897 | 146.9
5 | CN(C(=O)C1CCCN(S(=O)(=O)c2cccc([N+](=O)[O-])c2)C1)C1CCS(=O)(=O)C1 (stereo not given) | . | . | 0.9 | .
6 | COc1cc(NC(=O)Cn2ccsc2=N)c(C)cc1[N+](=O)[O-] | . | . | 0.94 | .
7 | CCC(=O)Nc1ccccc1C(=O)OCC(=O)Nc1ccc(S(N)(=O)=O)cc1 | -0.5 | -57.1 | 1.08 | 119.5
8 | CN(C(=O)COC(=O)CNS(=O)(=O)/C=C/c1ccccc1)C1CCS(=O)(=O)C1 (stereo not given) | -2.8 | . | 1.07 | .

No. | RGS16-Gao HTS | HSV augment | PKD1 kinase inh
1 | 111.3 | i | 1.3
2 | 98.5 | i | -10.5
3 | 97.7 | i | 2.0
4 | 103.1 | i | -10.9
5 | 106.0 | i | 5.6
6 | 95.3 | i | 0.8
7 | 97.8 | i | 1.5
8 | 104.8 | i | 9.5

Next part:
No. | smiles | GALR2 agonist | INS promoter inh | HSV augment primary fold | INS promoter inh cell count
9 | COc1ccc(C(=O)NCCc2cc3ccc(C)c(C)c3[nH]c2=O)cc1OC | . | 11.1 | 0.83 | 34.7
10 | CCn1c(C)cc(/C=C2\NC(=O)N(Cc3ccc(Cl)cc3)C2=O)c1C | 1.0 | 55.6 | 0.84 | 87.7
11 | Cc1cccc(CCNC(=O)CC2C(=O)NCCN2CC2CCCCC2)n1 (stereo not given) | . | . | 0.86 | .
12 | CN(Cc1ccno1)Cc1cn(C)nc1-c1ccc(Oc2ccccc2)cc1 | . | . | 0.85 | .
13 | CC(C)N1C(=O)C2ON(c3ccccc3)C(c3cccs3)C2C1=O (stereo not given) | -2.2 | . | 0.81 | .
14 | CC(=O)c1ccc(NC(=O)CCSCCC(=O)Nc2ccc(C(C)=O)cc2)cc1 | 0.4 | -69.0 | 0.94 | 105.3
15 | CCOC(=O)C1=C(C)NC(=O)NC1c1ccc([N+](=O)[O-])o1 (stereo not given) | . | . | 1.04 | .
16 | O=C(Nc1cc(S(=O)(=O)Nc2ccc(Cl)cc2)ccc1N1CCCCC1)c1ccc(F)cc1 | 0.7 | . | 1.17 | .

No. | RGS16-Gao HTS | HSV augment | PKD1 kinase inh
9 | 108.6 | i | 2.6
10 | 100.8 | i | 0.3
11 | 99.4 | i | -4.9
12 | 103.0 | i | -2.7
13 | 96.8 | i | 13.3
14 | 90.7 | i | 2.6
15 | 110.0 | i | .
16 | 51.3 | i | 7.6

(continued)
No. | smiles | GALR2 agonist | INS promoter inh | HSV augment primary fold | INS promoter inh cell count
17 | Cc1cc2nc(/C=C/c3nc4cc(C)c(C)cc4[nH]3)[nH]c2cc1C | . | . | 0.98 | .
18 | Cn1/c(=N/NC(=O)c2ccccc2Br)sc2ccccc21 | . | . | 1 | .
19 | CCOC(=O)c1cnn(-c2ccccc2)c1-n1cccc1C(=O)C(=O)Nc1ccc(OC)cc1 | -1.6 | -27.6 | 1.22 | 111.3
20 | CCOC(=O)c1c(NC(=O)CS(=O)(=O)c2cn(CC)c3ccccc23)sc2c1CCCCC2 | -0.3 | 25.0 | 0.85 | 130.4
21 | COC(=O)CNC(c1ccccc1)c1cc(Br)ccc1NS(=O)(=O)c1ccccc1 (stereo not given) | 0.5 | . | 0.99 | .
22 | Cc1nc2ccccc2n1S(=O)(=O)N(C)C | 0.8 | 54.5 | 0.97 | 158.0
23 | CCOC(=O)C1CCN(C(=O)CCS(=O)(=O)c2ccc3c(c2)CC(C)N3C(=O)CC)CC1 (stereo not given) | . | 54.5 | 0.97 | 195.6
24 | CCn1c(C(C)NC(=O)c2ccc(C)cc2)n[nH]c1=S (stereo not given) | -0.2 | 3.5 | 0.99 | 118.8

No. | RGS16-Gao HTS | HSV augment | PKD1 kinase inh
17 | 96.7 | i | .
18 | 102.2 | i | -2.4
19 | 96.3 | i | -6.3
20 | 117.7 | i | 7.5
21 | 108.6 | i | -5.0
22 | 102.3 | i | -2.3
23 | 109.5 | i | -0.4
24 | 98.7 | i | -3.4

Next part.
No. | smiles | GALR2 agonist | INS promoter inh | HSV augment primary fold | INS promoter inh cell count
25 | CC1(C)CC(=O)C=C(NCc2ccc(C(=O)O)cc2)C1 | . | . | 1.29 | .
26 | COc1cc(NS(=O)(=O)c2ccc(NC(=O)CSC3=NCCS3)cc2)nc(OC)n1 | -2.5 | . | . | .
27 | CCOc1cc2nc(-c3ccc(OC)c(OC)c3)nc(N3CC(C)OC(C)C3)c2cc1OC (stereo not given) | -1.1 | . | . | .
28 | C/C(CC(=O)NCc1ccco1)=N\NC(=O)C(c1ccccc1)c1ccccc1 | -4.1 | 39.3 | 0.95 | 98.2
29 | COc1c(C)cc(C(=O)C2CCCN(C(=O)Cn3ccc(C)n3)C2)cc1C (stereo not given) | . | . | 1.05 | .
30 | CCOc1ccc(Br)cc1S(=O)(=O)Nc1ccc(N2CCOCC2)cc1 | -3.2 | 16.2 | 0.97 | 115.2
31 | C/C(=N/Oc1nc(C)cc(C)n1)c1ccccc1 | 4.5 | -34.3 | 0.98 | 214.9
32 | Cc1nc2sc(C(c3ccco3)N3CCN(c4ccccc4)CC3)c(O)n2n1 (stereo not given) | -1.5 | 0.0 | 0.94 | 81.0

No. | RGS16-Gao HTS | HSV augment | PKD1 kinase inh
25 | 105.0 | i | .
26 | 99.4 | . | 6.7
27 | 99.9 | . | 4.0
28 | 102.2 | i | -10.4
29 | 107.6 | i | -6.0
30 | 101.8 | i | -2.0
31 | 102.2 | i | 3.3
32 | . | i | -10.7

Carrying on:
No. | smiles | GALR2 agonist | INS promoter inh | HSV augment primary fold | INS promoter inh cell count
33 | C=C(C)Cn1c(CCNC(=O)C(C)(C)C)nc2ccccc21 | -0.5 | . | 0.84 | .
34 | O=C(Nc1nccs1)c1ccccc1N=Cc1ccccc1 | -1.4 | 24.3 | 0.82 | 101.8
35 | Cc1cc(/C=N/O)c(C)n1-c1ccccc1 | 0.2 | -17.2 | 1.02 | 90.3
36 | COc1ccc2c(c1)C(=NO)c1cc(OC)ccc1-2 | -1.2 | . | 0.833 | .
37 | COc1cccc(CC2CC(=O)N(CCc3ccc4c(c3)OCO4)C2=O)c1 (stereo not given) | -2.5 | 28.1 | 1.03 | 85.8
38 | O=C(CCC(=O)NC1CCCCCC1)Nc1nnc(C(F)(F)F)s1 | -2.1 | 13.3 | 0.94 | 132.8
39 | O=C(Nc1ccn(-c2ccccc2)n1)c1ccccc1Br | -1.0 | . | 1.05 | .
40 | O=C(O)c1ccc(OCC(F)(F)F)nc1 | . | . | 0.75 | .

No. | RGS16-Gao HTS | HSV augment | PKD1 kinase inh
33 | 99.2 | i | 9.2
34 | 107.7 | i | -1.1
35 | 87.5 | i | -5.2
36 | 98.8 | i | 0.1
37 | 69.7 | i | 6.8
38 | 94.2 | i | 5.0
39 | 82.8 | i | -9.1
40 | 100.0 | i | .

(cont.)
No. | smiles | GALR2 agonist | INS promoter inh | HSV augment primary fold | INS promoter inh cell count
41 | CN(C)C(=O)c1ccc2c(c1[N+](=O)[O-])C(=O)c1ccccc1C2=O | -2.2 | -3.3 | 1 | 60.0
42 | COc1ccc(NC(=S)N(CCN2CCOCC2)Cc2cc3cc4c(cc3[nH]c2=O)OCO4)cc1 | . | . | 0.92 | .
43 | N/C(=N\OC(=O)Oc1ccccc1)c1cccc([N+](=O)[O-])c1 | -1.4 | 26.9 | 1.07 | 91.8
44 | COc1ccc(-c2cc(-c3ccccc3)n3ncnc3n2)cc1 | -0.8 | 0.0 | 0.83 | 80.1
45 | FC(F)Sc1ccc(-n2c(-c3ccc(Cl)cc3)c[n+]3c2CCC3)cc1 | . | . | 1.04 | .
46 | COc1ccc(NC(=O)CSc2nc3c(c(=O)n2-c2ccc(F)cc2)SCC3)c(OC)c1 | -1.2 | 53.9 | 1.04 | 118.5
47 | Cc1cc(C(=O)CSc2nnc(-c3cccc(F)c3)n2N)c(C)n1Cc1ccc2c(c1)OCO2 | -2.5 | . | 0.99 | .
48 | COc1ccc(Oc2ccccc2C#N)cc1 | . | 39.5 | 1.14 | 134.7

No. | RGS16-Gao HTS | HSV augment | PKD1 kinase inh
41 | 83.1 | i | -4.0
42 | 104.8 | i | -8.0
43 | 54.8 | i | -15.2
44 | 103.9 | i | 0.2
45 | 102.7 | i | -3.0
46 | 99.8 | i | -7.8
47 | 103.5 | i | 12.8
48 | 100.5 | i | -3.4

Record cards, as listed above. Order of screens: GALR2 agonist | INS promoter inh | HSV augment primary fold | INS promoter inh cell count | RGS16-Gao HTS | HSV augment | PKD1 kinase inh
CCn1c(C)cc(/C=C2\NC(=O)N(Cc3ccc(Cl)cc3)C2=O)c1C as listed: 1.0 | 55.6 | 0.84 | 87.7 | 100.8 | i | 0.3
CC1(C)CC(=O)C=C(NCc2ccc(C(=O)O)cc2)C1 as listed: . | . | 1.29 | . | 105.0 | i | .

Reformatted with two lines to a compound: part of the list above
The line under a structure holds: GALR2 agonist, INS promoter inh, HSV augment primary fold, INS promoter inh cell count, RGS16-Gao HTS, HSV augment, PKD1 kinase inh
41: CN(C)C(=O)c1ccc2c(c1[N+](=O)[O-])C(=O)c1ccccc1C2=O
→ -2.2, -3.3, 1, 60.0, 83.1, i, -4.0
42: COc1ccc(NC(=S)N(CCN2CCOCC2)Cc2cc3cc4c(cc3[nH]c2=O)OCO4)cc1
→ ., ., 0.92, ., 104.8, i, -8.0
43: N/C(=N\OC(=O)Oc1ccccc1)c1cccc([N+](=O)[O-])c1
→ -1.4, 26.9, 1.07, 91.8, 54.8, i, -15.2
44: COc1ccc(-c2cc(-c3ccccc3)n3ncnc3n2)cc1
→ -0.8, 0.0, 0.83, 80.1, 103.9, i, 0.2
45: FC(F)Sc1ccc(-n2c(-c3ccc(Cl)cc3)c[n+]3c2CCC3)cc1
→ ., ., 1.04, ., 102.7, i, -3.0

(more compounds)
No. | smiles | GALR2 agonist | INS promoter inh | HSV augment primary fold | INS promoter inh cell count
49 | CCc1ccc(-n2c(Cn3nc(C(F)(F)F)cc3C)n[nH]c2=S)cc1 | 0.1 | -4.4 | 0.93 | 57.9
50 | COC(=O)c1ccccc1NC(=O)c1ccccc1N(C)S(=O)(=O)c1ccccc1 | -1.1 | . | 1.13 | .
51 | CC1CCN(c2c(NCC3CCC(C(=O)N4CCCCC4)CC3)c(=O)c2=O)CC1 (stereo not given) | 0.8 | . | 0.94 | .
52 | CCON1C(=O)CN(C(=O)OC)C1c1ccc(Cl)cc1Cl (stereo not given) | -1.6 | . | 0.87 | .
53 | COc1ccc(-c2noc(CSc3nnc(Cc4ccccc4)n3-c3ccc(Cl)cc3)n2)cc1 | -1.2 | -30.8 | 0.9 | 68.5
54 | CC(=O)NC(CC(=O)NCCN1C(=O)S/C(=C\c2ccccc2)C1=O)c1ccccc1 (stereo not given) | . | . | 0.87 | .
55 | CC(=O)c1sc(Nc2nc(C)cc(C)n2)nc1C | -0.6 | 7.1 | 0.9 | 115.9
56 | CC1Cc2ccccc2N1C(=S)Nc1ccc(S(N)(=O)=O)cc1 (stereo not given) | -2.3 | -5.4 | 1.02 | 129.1

No. | RGS16-Gao HTS | HSV augment | PKD1 kinase inh
49 | 96.6 | i | -8.7
50 | 109.8 | i | -1.6
51 | 90.9 | i | -3.2
52 | 112.2 | i | -12.7
53 | 97.6 | i | -5.2
54 | 103.5 | i | .
55 | 105.8 | i | 0.6
56 | 98.0 | i | 3.7

Following part.
No. | smiles | GALR2 agonist | INS promoter inh | HSV augment primary fold | INS promoter inh cell count
57 | CC(=O)c1sc(NC(=O)COc2ccc([N+](=O)[O-])cc2)nc1C | . | . | 1.12 | .
58 | O=C(Nc1nc(-c2ccc3c(c2)OCCO3)cs1)C1CCCC1 | . | . | 1.05 | .
59 | Cc1nn(C)cc1-c1n[nH]c(=S)n1-c1ccc(Cl)cc1 | -0.5 | 58.3 | 0.94 | 155.9
60 | Cc1ccc2[nH]c(-c3ccccc3)cc(=O)c2c1 | 1.1 | -44.4 | 0.53 | 18.4
61 | CCOc1ccc(Br)cc1CNCCN1CCOCC1 | -0.1 | 28.6 | 0.91 | 125.7
62 | N#Cc1nc(-c2ccc(F)cc2)oc1NCCN1CCOCC1 | -1.3 | . | 0.77 | .

No. | RGS16-Gao HTS | HSV augment | PKD1 kinase inh
57 | 98.6 | i | -4.0
58 | 94.8 | i | 5.8
59 | 97.3 | i | 3.8
60 | 93.6 | i | 1.5
61 | 97.3 | i | 0.1
62 | 107.2 | i | -8.4
